From PubChem BioAssay
ugtP null kill: compounds lethal to S. aureus RN4220 ugtP deletion mutant; OD600 growth, 16 h; some inactives read as strong as hits; growth inhibition, % (test concentration not listed); 0.54% of 330,000 active;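 active = z-score under -3 and OD600 up to 0.15 on both plates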;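 note: plate controls were untreated wells for no effect and antibiotic for full effect; wells of about 80 µL received 100 nL stock; the first replicate is given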
RN4220 kill: kills Staphylococcus aureus RN4220. inhibition, % (test concentration not listed). AID 1259311. 0.33% of 330,000 active. S. aureus RN4220 growth, OD600, 16 h;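 active = z-score of -3 or lower and OD600 up to 0.18 on both plates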;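 note: plate controls were untreated cells for no effect and reference antibiotic for full effect; stock transfer was 100 nL into about 80 µL; one replicate is shown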
Autofluor counter: compound fluorescence in toxin protease inhibitor counterscreen; 3.1% of 360,000 active; compound autofluorescence counterscreen, microsphere flow cytometry; active compounds read high; fluorescence intensity (no concentration beside the values);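 active = at least 3 SD above the mean of all compounds, about 16000 in these data; inconclusive = too few beads counted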;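 note: 100 nL of 1 mM stock went into each well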
Mtb hypoxia inh: inhibitors of hypoxia-regulated fluorescent reporter in Mycobacterium tuberculosis; 0.1% of 300,000 active; M. tuberculosis hypoxia-regulated fluorescent reporter, fluorescence; fluorescence inhibition, % (concentration not given with the values);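 active = 35 to 45% if threefold the growth effect, above 45% if 1.5-fold the growth effect; inactive = the rest, general growth blockers included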;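 note: wells of about 50 µL received 100 nL stock; 0% = vehicle wells and 100% = reference inhibitor wells; whole bacteria with a GFP reporter of the hypoxia response; strong numbers were not always called active; many hits fall short of the cut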
PrP UTR inh: inhibition of PrP 5' UTR reporter expression. 0.35% of 340,000 active. inhibition, % (concentration not given with the values). cell-based PrP 5' UTR mRNA reporter, plate reader;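 active = every replicate at 50% or more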;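 note: 0 = median of the neutral control wells; tested in H4 reporter cells; numbers are from one replicate; inactives centre near -14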
BJeLR viability: kills HRASV12-expressing BJeLR cells; BJeLR (HRASV12) viability, CellTiter-Glo ATP luminescence, 48 h; reference of the scale not given here; inhibition, % (test concentration not listed); 0.17% of 300,000 active; AID 1554;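 active = replicate mean above 50%; inconclusive = above 50% but judged a plate artefact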;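 note: 50 nL library stock added to about 25 µL; numbers are from one replicate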
Mtb hypoxia inh growth: recorded beside Mtb hypoxia inh, whose call it bears; growth inhibition, %; measured here: M. tuberculosis growth (absorbance);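 0% = vehicle and 100% = reference antibiotic; read after six days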
* = called active by the depositor; ? = inconclusive; · = no result given; & = joins results of further samples.

nr	molecule	ugtP null kill	RN4220 kill	Autofluor counter	Mtb hypoxia inh	Mtb hypoxia inh growth	PrP UTR inh	BJeLR viability
1	COc1ccc(OCC(=O)Nc2c(C(=O)N3CCN(C)CC3)oc3ccccc23)cc1	6	1.7	5455	13	4	-16	-14
2	CN1CCCC(OC(=O)c2cccc(S(=O)(=O)N3CCCCCC3)c2)C1 (stereo not given)	1	1.0	4076	2	-5	-15	12
3	CC(=O)c1cccc(NC(=O)C(C)OC(=O)CCN=C2NS(=O)(=O)c3ccccc32)c1 (stereo not given)	-2	2.6	5618	-4	1	-18	7
4	COc1ccc(C2(C(=O)NCC3CCCO3)CCOCC2)cc1 (stereo not given)	-5	0.4	·	14	1	-10	1
5	O=C(N/N=C/c1ccc([N+](=O)[O-])cc1)c1ccc2nc[nH]c2c1	·	·	2916	·	·	-22	6
6	Cc1nonc1N1CCN(Cc2cn[nH]c2-c2ccc(F)cc2F)CC1	1	0.1	3329	4	0	-25	·
7	FC(F)(F)c1cc(C(F)(F)F)c2ccc(N3CCN(c4ccc(Cl)cc4)CC3)nc2n1	48	41	21584*	13	12	-19	7
8	C(C#CCCCCCCCCC[n+]1ccccc1)#CCCCCCCCCC[n+]1ccccc1	101*	100*	3736&4205	·	·	-13&1	52*
9	Cc1nc2ncnn2c(C)c1CCC(=O)NCCC1=CCCCC1	·	·	20756*	·	·	-31	-7
10	O=C(c1ccc2nc(-c3ccco3)c(-c3ccco3)nc2c1)N1CCN(c2ncccn2)CC1	0	-1.1	?	0	8	-25	-4
11	N#CC1(NC(=O)COC(=O)CNC(=O)c2sc3ccccc3c2Cl)CCCCC1	-4	5.3	5834	9	7	1	·
12	N/C(=N\N=C\c1ccc2c(c1)OCO2)c1nonc1N	·	·	2155	·	·	-53	9
13	Cc1ccccc1C1=NC(C(F)(F)F)(C(F)(F)F)c2c(n(C)c(=O)n(C)c2=O)N1	-1	5.9	2620	-7	7	-10	-5
14	COc1ccc(-c2csc(NC(=O)COc3ccc(N(C)S(=O)(=O)c4ccc(C)cc4)cc3)n2)cc1	-2	-1.7	1997	4	-2	-6	-5
15	Cc1c(NC(=O)/C(C#N)=C/c2ccc(-c3ccc(Cl)c(Cl)c3)o2)c(=O)n(-c2ccccc2)n1C	-4	0.6	2543	11	-7	-9	-12
16	CC(NC(=O)CNC(=O)c1cccc(Cl)c1)c1ccccc1 (stereo not given)	8	-1.6	3330	14	11	-7	0
17	CC(NCC(=O)Nc1ccccc1C(=O)NC1CC1)c1ccco1 (stereo not given)	2	-0.2	6327	3	4	-9	·
18	CC(C)c1nc(-c2c(N)n(C)c(=O)n(C)c2=O)sc1C(=O)C(C)(C)C	0	4.3	4273	4	3	-17	-13
19	C=CCN(CC=C)C(=S)Nc1ccccc1	6	-0.7	22624*	7	6	-31	·
20	Cc1cc(-c2ccc(C)c(S(=O)(=O)NCC3CCN(Cc4ccc(F)cc4)CC3)c2)on1	0	0.8	4734	-14	-13	9	0
21	COc1ccccc1NS(=O)(=O)c1ccc2oc(SCC(=O)N3CCNC3=O)nc2c1	-2	6.8	7181	1	1	-2	·
22	O=C(COC(=O)c1ccccc1SCC(=O)N1CCCC1)NCc1ccccc1	10	4.7	4872	6	1	-10	-3
23	CCNC(=O)COn1c(SCC(=O)NCC)nc2ccccc2c1=O	-2	-1.1	8482	5	7	-15	5
24	Cn1c2ccccc2c(=O)c2c(=O)n(Cc3ccco3)c(-c3ccc(F)cc3)nc21	-7	5.1	3159	-6	2	-8	-4

Structural class, the compounds so far with a CF3 group
nr	molecule	ugtP null kill	RN4220 kill	Autofluor counter	Mtb hypoxia inh	Mtb hypoxia inh growth	PrP UTR inh	BJeLR viability
7	FC(F)(F)c1cc(C(F)(F)F)c2ccc(N3CCN(c4ccc(Cl)cc4)CC3)nc2n1	48	41	21584*	13	12	-19	7
13	Cc1ccccc1C1=NC(C(F)(F)F)(C(F)(F)F)c2c(n(C)c(=O)n(C)c2=O)N1	-1	5.9	2620	-7	7	-10	-5

Continuation:
nr	molecule	ugtP null kill	RN4220 kill	Autofluor counter	Mtb hypoxia inh	Mtb hypoxia inh growth	PrP UTR inh	BJeLR viability
25	CC(NC(=O)CN1CCN(c2ccccc2F)CC1)c1ccccc1 (stereo not given)	4	2.6	3737	-1	2	-7	3
26	CSCCC(N=C1NS(=O)(=O)c2ccccc21)C(=O)NCCc1ccccc1 (stereo not given)	6	2.5	5386	2	-3	-7	-9
27	COC(=O)c1ccc(CN2CCC(CO)(Cc3ccc(OC)cc3)CC2)cc1	7	2.1	3602	11	2	-9	-2
28	Cc1ccc(CN(C)C(=O)CCc2c[nH]c3ccccc23)o1	-3	5.3	5359	9	0	-25	-6
29	O=C(Nc1c(C(=O)N2CCC(N3CCCCC3)CC2)oc2ccccc12)c1c(F)cccc1F	9	-2.9	6782	8	2	-22	-8
30	O=C(Nc1ccc(Cl)cc1)c1csc(-c2ccccc2)n1	-4	9.3	16593*	-1	-4	-15	0
31	CCOC(=O)c1nn(-c2ccccc2)c(=O)cc1SC1CCCCC1	3	2.3	4327	12	7	18	2
32	O=C(OC1CCCCC1)c1ccc(NC(=O)C2CCCCC2)cc1	-21	-6.7	2758	·	·	-15	1
33	N#C/C(=C/c1cccn1-c1cccc(C(=O)O)c1)c1ccc(F)cc1	16	27	4708	10	12	-8	2
34	COCCn1c(SCC(=O)Nc2ccc(OC)cc2)nc2c(oc3ccccc32)c1=O	3	7.3	·	11	1	·	-5
35	Cc1ccc(C(=O)Nc2ccccc2N2CCCCC2)cc1[N+](=O)[O-]	2	-3.6	1965	8	3	-16	-4
36	COc1ccc(OC)c(S(=O)(=O)NCc2cn3c(C)csc3n2)c1	2	-13	4128	1	7	-6	-3
37	CCc1nc(SCC(=O)NCc2ccco2)c2c(=O)n(C)c(=O)n(C)c2n1	6	7.4	4303	3	4	-8	0
38	CC1CC(C)CN(S(=O)(=O)c2ccc(NC(=O)CCN3C(=O)C4CC=CCC4C3=O)cc2)C1 (stereo not given)	-8	-3.3	3648	-6	-1	46	·
39	CC1=NN(c2ccccc2)C(=O)C1C=C1C(=O)NC(=O)N(c2cc(C)cc(C)c2)C1=O (stereo not given)	-7	4.0	·	7	6	·	·
40	CCc1ccc(C(=O)N2CCN(S(=O)(=O)c3sc(C(=O)O)c(C)c3C(=O)O)CC2)cc1	7	5.9	3690	13	7	-7	·
41	CCN(CC(=O)Nc1c(F)cccc1F)C(=O)C1CCN(c2ncnc3sc(C)c(C)c23)CC1	-1	1.0	·	-4	8	-7	-2
42	O=C(NCc1ccccc1Cl)c1cc([N+](=O)[O-])ccc1Cl	·	·	2963	·	·	-7	4
43	CCC(C)n1c(/C=C/c2ccccc2)nc2ccccc21 (stereo not given)	0	3.5	2472	15	5	6	8
44	CCOC(=O)NN=Cc1cn(CCCOc2ccccc2)c2ccccc12	10	-13	·	12	5	·	·
45	CC12CN(C(=O)c3ccccc3)C3(C#N)CC1CCC23C (stereo not given)	-2	1.5	2444	·	·	-18	4
46	Cc1csc2ncc(C(=O)NCCc3ccccc3)c(=O)n12	6	5.8	5831	15	9	-44	-6
47	O=C(N/N=C/c1ccc(Br)s1)c1ccccn1	·	·	2123	·	·	-139	12
48	O=c1[nH]c(=O)c2[nH]c(=S)[nH]c2[nH]1	5	3.7	4489	-8	-12	-11	·
49	COc1ccccc1NC(=O)c1ccccc1NS(=O)(=O)N1CCCC1	-3	4.2	10265	17	5	-17	10
50	NC(=O)c1ccc(-c2c(-c3ccccc3)sc3ccccc23)cc1	2	-2.6	3267	22	4	-25	·
51	CC1CC(CN)CC(CO)C1 (stereo not given)	6	0.0	4316	5	15	-5	-7
52	O=C(NNC(=O)c1cnccn1)c1ccc(Cl)cc1	0	1.6	6152	-1	5	-15	3
53	Nc1nonc1-n1nnc(C(=O)N/N=C/c2ccc3c(c2)OCO3)c1CSc1ccccc1	·	·	4245	·	·	-79	1
54	O=C(C1CCCN(S(=O)(=O)c2cccc3nonc23)C1)N1CCC(Cc2ccccc2)CC1 (stereo not given)	-3	0.2	5231	·	·	-8	0
55	Cc1sc2ncnc(SC(C)C(=O)N3c4ccccc4Sc4ccccc43)c2c1C (stereo not given)	27	0.7	2284	1	4	1	-22
56	Cc1ccc(C(=O)CSc2nnc(-c3ccco3)n2CC2CCCO2)cc1 (stereo not given)	-13	7.2	2340	-4	4	-12	-11
57	CN1CCN(/N=C/c2nc(-c3cccc([N+](=O)[O-])c3)n3ccccc23)CC1	·	·	2350	·	·	-19	-3
58	Cn1nc(-c2ccc(OCC(=O)Nc3cccnc3)cc2)c2ccccc2c1=O	12	2.2	8764	20	22	-6	-10
59	O=C(Nc1ccc2ccccc2c1)c1ccc2[nH]c(=O)c(=O)[nH]c2c1	-3	1.2	4000	4	-2	-43	-4
60	COC(=O)c1ccc(OC(=O)c2ccccc2F)cc1	-1	3.7	·	-6	10	·	-8
61	COc1ccnc(N=CNOCc2ccc(F)cc2Cl)c1C#N	8	0.1	2066	·	·	-27	3
62	O=C(CCC(=O)N1CCOCC1)NCCc1ccc(F)cc1	10	4.6	3002	4	-3	-23	·
63	Cc1cc(C)cc(OCC(=O)Nc2ccccc2C(=O)N2CCOCC2)c1	·	·	5848	·	·	-16	-9
64	CCOC(=O)C1CCN(Cc2nc3ccccc3c(=O)n2-c2ccc(OCC)cc2)CC1	4	1.2	8670	-4	-7	5	-3
65	O=C(CN1c2cccc3cccc(c23)S1(=O)=O)Nc1cccc(S(=O)(=O)N2CCOCC2)c1	4	-2.2	2674	3	7	-3	-1
66	CCN(C(=O)CSc1nc2ccc([N+](=O)[O-])cc2s1)c1c(N)n(Cc2ccccc2)c(=O)[nH]c1=O	2	3.2	3366	-7	2	-19	·
67	CN(C(=O)c1cccc(C(=O)N(C)c2ccccc2)c1)c1ccccc1	-2	2.4	4100	-6	-1	-22	-6
68	FC(F)(F)c1ccc2c(c1)N(CCCN1CCN(CCCl)CC1)c1ccccc1S2	101*	100*	2593	·	·	-16	1
69	CC(C)[C@H](NC(=O)c1ccco1)C(=O)OCC(=O)NC12CC3CC(CC(C3)C1)C2	0	-2.7	3668	12	3	-9	-12
70	COc1ccc(C(=O)NCC(=O)OCC(=O)Nc2ccc(C)c(S(=O)(=O)N(C)C)c2)cc1OC	3	5.8	4492	12	4	-5	-2
71	CN(CC(=O)NCc1ccco1)CC(=O)Nc1cc(S(C)(=O)=O)ccc1Cl	2	1.2	5398	-8	3	-9	·
72	O=C(Nc1nc2ccsc2c(=O)s1)c1ccc(F)cc1Cl	1	1.7	3064	1	-18	-56	6
73	CCn1c2ccccc2c(=O)c2ccccc21	6	3.5	3176	12	12	15	0
74	Cc1ccc2[nH]c3c(NCCN4CCOCC4)ncnc3c2c1	-4	2.6	4763	4	11	-51	-5
75	COC(=O)c1ccccc1NC(=O)N1CCc2ccc(NC(=O)c3ccccn3)cc2C1	16	7.5	4447	-1	-1	-87	-2
76	CN1CCCC(n2nc(Cc3ccc(Cl)cc3)c3ccccc3c2=O)CC1 (stereo not given)	5	3.0	4326	4	1	-4	-9
77	CCCC(=O)NC(Oc1ccccc1Cl)C(Cl)(Cl)Cl (stereo not given)	-3	4.6	11613	6	5	-24	1
78	COc1ccc(-c2nc(C(=O)O)cs2)cc1OC	4	6.8	3261	5	11	5	0
79	O=C(c1ccc(Cl)cc1)N1CCCCC(Cl)C1=O (stereo not given)	5	3.5	3143	2	-3	-10	-8
80	Cc1nn(S(=O)(=O)c2ccc(C(C)C)cc2)c(C)c1S(=O)(=O)N1CCOCC1	6	3.5	4698	5	9	2	1
81	COc1ccc(/C=C2\SC(=S)N(NC(=O)c3csc4c3CCCC4)C2=O)cc1	-4	15	2527	0	-4	-13	20
82	CCCOc1ccc(C(=O)N(Cc2cccs2)C2CCS(=O)(=O)C2)cc1 (stereo not given)	6	4.6	·	-7	-7	2	-9
83	Cc1cc(C)nc(/N=C2\NC(=O)CC3C(=O)NCCN23)n1 (stereo not given)	0	3.8	4040	3	4	-6	-5
84	CCc1ccc(C=NNC(=O)c2ccc(OC3CCCC3)cc2)s1	-11	3.7	·	15	14	·	·
85	Cc1ccc(C(=O)SC2=NCCS2)cc1	2	0.9	10341	11	19	-17	-8
86	O=C(O)C(C(=O)O)=C1C2CC3CC(C2)CC1C3	8	3.8	4811	9	11	-22	1
87	CC1CN(c2ccc([N+](=O)[O-])c3cccnc23)CC(C)N1 (stereo not given)	-5	-12	·	8	13	-13	7
